Sfp PPTase inh = qHTS Assay for Inhibitors of Bacillus subtilis Sfp phosphopantetheinyl transferase (PPTase); Biochemical Sfp PPTase activity, qHTS; actives 3.5% (n = 310,000); Potency, µM, for the others: max response, negative = inhibition, usual class: inhibitors; 4'-phosphopantetheinyl transferase ffp (Bacillus subtilis), Q9F4F7; active means well fitted inhibition curve with a large enough effect; inconclusive means small, poorly fitted or top-dose-only effect, or another doubt; inactive means no such curve, though single readings can be large or run the other way;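 further: the enzyme is Sfp with the accession as filed and its product quenches rhodamine fluorescence; potency means the concentration at half of the fitted maximal effect; 0% = enzyme reaction without inhibitor and -100% = no enzyme wells; top concentration of the series not given in the record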
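Buffer: 50 mM Hepes-Na pH 7.6, 10 mM MgCl2, 0.01% Nonidet P-40, 0.01% BSA. Enzyme 15 nM, pre-exposed to compound 15 min; substrates then added and fluorescence change tracked over 30 min.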
PINK1 expr mod = A Quantitative High throughput Screen to Identify Chemical Modulators of PINK1 Expression; PINK1 immunofluorescence, high-content cytometry, 24 h; Potency, µM (titrated, usually from 76.6 µM), for inactives: at the highest dose activation (PINK1 increase), usual class: activators; actives 0.2% (n = 410,000); AID 624263, 2012; active = well fitted activation curve with a large enough effect; inconclusive = small, poorly fitted or top-dose-only effect; inactive = flat fitted curve, though single readings scatter; cell line not stated here;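 further: potency means the concentration at half of the fitted maximal effect; % of control where 0% means no effect; nearly all actives have a fitted effect of over 65% in size; a mitochondrial uncoupler was the plate control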
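Decision-based qHTS: stable cells, 24 h exposure to five compound concentrations, CCCP as control. Fixed cells stained for PINK1 plus nuclear, mitochondrial and cell markers, cytometer read.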
Menin-MLL FL inh = qHTS Assay for Inhibitors Targeting the Menin-MLL Interaction in MLL Related Leukemias: Competition With Fluorescein Labeled MLL-derived Peptide; 290,000 tested, under 10 active; FP activity change, % at 61.4 µM; AID 1766, 2009; Fluorescence polarization, fluorescein-MLL peptide displacement from menin; inconclusive = falling polarisation curve, or a change in total fluorescence; inactive = total fluorescence flat and polarisation flat or rising; no compound was filed as active; the % refers to the polarisation; negative = inhibition;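 further: % of control where 0% means no effect; inhibitors lower the polarisation; unlabelled MLL peptide was the positive control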
TRPV1 PAM = HTS Assay for Compounds that Act as Potentiators of the Vanilloid Receptor 1; Transient receptor potential cation channel subfamily V member 1 (Homo sapiens), Q8NER1; TRPV1-expressing cells, Fluo-8 calcium influx, capsaicin EC20 potentiation; host cell line not named in the record; control for the full effect not named in the record; potentiation, % at 8.33 µM; actives 0.02% (n = 320,000); AID 540277, 2011; active means potentiation above 80%; inconclusive means 30% to 80%; inactive means below 30%; further: 0% is about no effect
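Cells expressing TRPV1 were dye-loaded with Fluo-8 and read kinetically: 10 s baseline, 3 min after compound (agonist portion), then 2 min after EC20 capsaicin (allosteric enhancer portion). Calcium-bound dye fluorescence at 480/520 nm.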
ClpP mod = qHTS Assay for Activators of ClpP; ATP-dependent Clp protease proteolytic subunit (Bacillus subtilis (strain 168)), P80244; purified B. subtilis ClpP, FRET peptide cleavage, 20 min; Potency, µM (series often up to 57.5 µM), for inactives: at the highest dose activity change, negative = active; actives 1.9% (n = 340,000); AID 651965, 2013; active = well fitted falling curve with a large enough effect; inconclusive = small, poorly fitted or top-dose-only effect; inactive = no such curve, though single readings can be large or run the other way; further: potency means the concentration at half of the fitted maximal effect; the source files actives as falling curves though it sought activators and does not explain the sign; nearly all actives have a fitted effect of over 65% in size; many hits overshoot -100%
Target sequence (P80244 whole entry, looked up): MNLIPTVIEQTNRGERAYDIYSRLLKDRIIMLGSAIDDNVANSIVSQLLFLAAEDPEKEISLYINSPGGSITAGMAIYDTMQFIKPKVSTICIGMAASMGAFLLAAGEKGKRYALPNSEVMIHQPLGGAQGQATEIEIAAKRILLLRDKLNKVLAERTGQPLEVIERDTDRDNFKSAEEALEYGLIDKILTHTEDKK
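ClpP 10 microg/mL final, pH 8 Tris/KCl buffer with BSA, glycerol, Tween-20; compound pinned in; FRET-FV substrate; RT 20 min; Ex320/Em430; ΔFRET vs ADEP 5.8 microM, DMSO, no enzyme.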
TRPML1 blocker = qHTS for Inhibitors of the Human Mucolipin Transient Receptor Potential 1 (TRPML1); Mucolipin-1 (Homo sapiens), Q9GZU1; actives 0.02% (n = 390,000); TRPML1-inducible cells, Ca2+ dye fluorescence, FDSS; active compounds read low; inhibition of EC80 agonist-evoked calcium signal; activity change, negative = inhibition, % (concentration not given with the values); AID 624415, 2012; in the data active means activity change below about -50%; inconclusive means about -30% to -50%; inactive means above about -30%;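 further: stimulus is agonist 54-4 at its EC80 concentration; on the % scale 0 is the no-effect control and ±100 the full control effect; the text of the record puts the active cut at -80%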
Target sequence (Q9GZU1 whole entry, looked up): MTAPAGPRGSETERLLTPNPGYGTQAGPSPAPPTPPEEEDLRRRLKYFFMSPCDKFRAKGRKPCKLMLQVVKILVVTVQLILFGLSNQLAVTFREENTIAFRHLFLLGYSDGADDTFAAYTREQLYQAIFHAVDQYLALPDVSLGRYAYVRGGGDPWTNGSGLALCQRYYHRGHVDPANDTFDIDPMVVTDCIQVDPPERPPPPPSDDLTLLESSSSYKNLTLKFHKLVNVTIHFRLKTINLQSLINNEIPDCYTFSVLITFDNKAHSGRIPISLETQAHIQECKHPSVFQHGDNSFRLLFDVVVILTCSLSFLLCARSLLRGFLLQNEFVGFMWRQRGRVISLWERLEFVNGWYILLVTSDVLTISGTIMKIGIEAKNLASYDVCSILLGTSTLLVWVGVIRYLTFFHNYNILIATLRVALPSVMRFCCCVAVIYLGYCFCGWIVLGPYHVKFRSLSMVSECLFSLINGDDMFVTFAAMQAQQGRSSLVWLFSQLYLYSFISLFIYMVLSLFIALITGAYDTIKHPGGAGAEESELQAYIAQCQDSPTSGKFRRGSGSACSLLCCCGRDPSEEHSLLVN
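Calcium fluorescence in TRPML1-DL cells induced overnight with Tet: a 110 s read after compound pin addition, then a 110 s antagonist read after challenge with 54-4 at 4 uM final (EC80).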
TRPML1 ag = qHTS for Agonists of the Human Mucolipin Transient Receptor Potential 1 (TRPML1) | actives 0.12% (n = 410,000) | activation, % (test concentration not listed) | TRPML1-expressing cells, Ca2+ dye fluorescence, FDSS; host cell line not named in the record; reference of the full effect not given here; in the data active = activation above about 50%; inconclusive = about 30% to 50%; inactive = below about 30%; further: 0% is about no effect; the text of the record puts the active cut at 80%
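Agonist activity was taken from a 110 s kinetic Ca2+ dye read on the FDSS after pinning compounds onto TRPML1-DL cells. The cells were seeded at 1,500/well with Tet inducer, incubated about 16 h, then dye-loaded at room temperature.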
Starred values were filed as active, the others as inactive; ? = inconclusive; nt = not tested or not shown; & = joins results of further samples; [ ] = remark or other dose. No enrichment for hits; about 4.4% have a hit in one of these screens.

Sample of the layout:
SMILES	Sfp PPTase inh	PINK1 expr mod	Menin-MLL FL inh	TRPV1 PAM	ClpP mod	TRPML1 blocker	TRPML1 ag
Cc1ccccc1Cn1cc(NC(=O)c2cc(C3CC3)on2)cn1	5%	2.4%	-0.1	0	0.5%	-1	0.9
O=C(COc1cc2oc(=O)c3c(c2cc1Cl)CCC3)NCC(O)c1ccccc1 (centres undefined)	-5%	1.6%	nt	-7	-4.6%	-10	-0.3
COc1ccc(CCNC(=O)c2nnn(-c3ccccc3OC)c2N)cc1OC	10%	-0.6%	3.3	nt	0.7%	-4	-0.3

Results (from the top)
SMILES	Sfp PPTase inh	PINK1 expr mod	Menin-MLL FL inh	TRPV1 PAM	ClpP mod	TRPML1 blocker	TRPML1 ag
Cc1ccccc1Cn1cc(NC(=O)c2cc(C3CC3)on2)cn1	5%	2.4%	-0.1	0	0.5%	-1	0.9
O=C(COc1cc2oc(=O)c3c(c2cc1Cl)CCC3)NCC(O)c1ccccc1 (centres undefined)	-5%	1.6%	nt	-7	-4.6%	-10	-0.3
COc1ccc(CCNC(=O)c2nnn(-c3ccccc3OC)c2N)cc1OC	10%	-0.6%	3.3	nt	0.7%	-4	-0.3
Clc1ccccc1-c1cc(NCCN2CCOCC2)ncn1	79µM*	-0.7%	-5.4	nt	nt	nt	nt
Cc1cc(C)c2nc(C(F)(F)F)nc(N3CCN(C(=O)c4ccco4)CC3)c2c1	-27%	7.0%	2.3	?	81%	28	2.1
Cc1c(N=Nc2c(-c3ccc([N+](=O)[O-])cc3)[nH]n(C(N)=S)c2=O)cccc1[N+](=O)[O-]	-6%	3.2µM*	-0.8	5	nt	-16	-0.7
Nc1ccccc1Nc1c(F)c(F)nc(F)c1Cl	6%	6.8%	0.7	7	0.0%	3	0.5
CCNC(=S)N(CCc1c(C)[nH]c2ccc(C)cc12)Cc1ccco1	6%	?	16	11	-2.5%	3	1.3
O=C(CN1CCN(C(=O)c2ccccc2)CC1)NC(=O)NCCC1=CCCCC1	nt	0.0%	nt	nt	0.8%	3	0.9
CC(C(=O)NCc1ccc(Cl)cc1)n1ccc2cc(S(=O)(=O)N3CCCC3)ccc21 (centres undefined)	nt	-0.3%	nt	nt	-8.6%	19	2.0
CN(C(=O)CCS(=O)(=O)c1ccc2c(c1)oc(=O)n2C)C1CCCCC1	9%	-0.1%	nt	11	nt	35	0.0
Cc1ccc(-n2c(N)c(C(N)=O)sc2=S)c(C)c1	20µM*	2.4%	-3.2	6	1.1%	2	0.0
O=C(CN1C(=O)NC2(CCCC2)C1=O)NCc1ccc(Cl)cc1	nt	-0.1%	nt	nt	-3.2%	-5	0.0
CC(C)COC(=O)c1ccc(N2C(=O)c3ccccc3C2=O)cc1	18%	-2.1%	1.3	-5	nt	-18	1.1
O=C(NCCN1CCCCC1)Nc1ccc([N+](=O)[O-])cc1	6%	-0.7%	-1.7	-3	-1.9%	3	0.5
CCC[N+](CC#Cc1ccccc1)(CCC)CC(=O)c1ccc(Cl)cc1	-8%	?	4.2	-31	-4.5%	-9	0.9
CC(C)n1cnc2cc(NC(=O)c3ccco3)ccc21	-8%	1.0%	-0.1	7	nt	-7	0.9
O=S(=O)(c1ccc(Br)s1)N1CCN(c2ccnc3cc(Cl)ccc23)CC1	5%	1.7%	-1.1	7	nt	-14	0.7
COc1ccc(CNC(=O)CN2CCN(c3cccc(C)c3C)CC2)cc1	0%	1.6%	-4.4	-5	nt	10	3.1
CN(C)C(=O)N1CCN(C(=O)N2CCOCC2)CC1	8%	-0.8%	9.2	4	-5.7%	0	0.0
Cc1cccc(Nc2ncnc(N)n2)c1	9%	0.7%	-1.0	-2	nt	4	-0.3
COC(=O)C1CCN(C(=O)COc2cc3sc(C)nc3c3sccc23)CC1	10%	-2.4%	2.8	-6	-3.9%	7	4.6
CC(=O)N1CCCc2cc(S(=O)(=O)N3CCCC(C(=O)Nc4cccc(F)c4)C3)ccc21 (centres undefined)	11%	3.7%&-2.3%	-0.7	7	0.1%&-1.4%	4&-1	-0.8&0.2
CC(=O)c1c(Cl)nc2ccc(Br)cc2c1-c1ccccc1	-11%	3.9%	1.1	9	-3.3%	nt	nt
CC(=O)Nc1ccc2nc3c(=O)[nH]c(=O)[nH]c3nc2c1	nt	-0.6%	nt	17	nt	8	0.4
COc1ccc(Cl)cc1N1C(=O)CC(N2CCc3ccccc32)C1=O (centres undefined)	-3%	4.8%	-2.0	1	-4.2%	10	-0.5
O=C(CCCN1C(=O)/C(=C/c2ccccc2Cl)SC1=S)NNC(=O)c1ccccc1	7%	3.9%	7.5	?	-0.9%	3	0.1
N#Cc1ccccc1NS(=O)(=O)c1cc2c3c(c1)CCC(=O)N3CCC2	nt	-2.1%	nt	-6	nt	15	2.6
O=C(COc1ccccc1)Nc1ccc(Cl)c(-c2nc3ncccc3o2)c1	13%	0.3%	2.7	8	-12%	1	0.7
Cc1ccc(S(=O)(=O)N2CCC(=O)N(C(COCc3cccc(C)c3)Cc3ccccc3)CC2)cc1 (centres undefined)	-8%	2.1%	2.0	-8	-2.4%	-6	1.3
O=C(CCCn1ncn2c(cc3occc32)c1=O)N1CCc2ccccc2C1	11%	2.4%	2.7	3	-1.9%	30	-0.6
O=C(NCN1CCN(CCO)CC1)c1cnccn1	12%	1.0%	0.0	-4	0.6%	-13	0.1
Cc1ccc(NC(=O)CN2C(=O)C(=O)N(C3CCCC3)C2=O)c(Cl)c1	nt	0.2%	nt	18	1.0%	-6	-0.4
CCOC(=O)c1ccc(NC(=O)CC2Sc3ncnn3C2=O)cc1 (centres undefined)	22µM*	-2.4%	6.8	-6	-1.1%	-24	0.5
COC(=O)C1C/C(=N\NS(=O)(=O)c2ccc(C)cc2)c2ccsc2C1 (centres undefined)	11%	-0.8%	-1.3	13	-2.4%	-18	2.1
COc1ccc(C(=O)Nc2ccccc2C(=O)NCc2ccco2)cc1	-6%	6.7%	-6.0	-3	nt	-2	1.2
C=C1CCN([C@@H](C)C(=O)OCc2ccc(C)cc2)S(=O)(=O)c2ccccc21	-3%	-1.6%	1.2	1	-5.0%	75	2.7
O=C(c1ccncc1)N1CCN(C(=O)c2ccco2)CC1	0%	-1.2%	-0.9	-5	1.4%	3	0.4
CCOc1ccc(C(=O)Nc2ccc(N3CCN(S(C)(=O)=O)CC3)cc2)cc1[N+](=O)[O-]	26%	1.3%	-0.8	1	1.0%	-8	0.3
CCOCC(=O)Nc1cccc(SC)c1	-4%	0.7%	-6.0	-3	nt	26	-0.3
CCOc1cccc(C(=O)Nc2ccc(-c3nc4ncccc4o3)cc2C)c1	nt	-0.8%	nt	nt	3.8%	-7	2.6
CCOc1ccc(NC(=O)c2c(NC(=O)CNCCN3CCOCC3)sc3c2CCC3)cc1	4%	-0.2%	2.6	-12	-0.9%	0	-0.4
CCCCCc1nc2c(c(=O)c3ccccc3n2C)c(=O)n1Cc1ccc(OC)cc1	-6%	1.3%	1.0	0	0.3%	4	-0.8
COc1cc(-c2nn3c(-c4ccccn4)nnc3s2)cc(OC)c1OC	10%	nt	0.0	4	nt	nt	nt
C=CCN(Cc1nc(-c2cc(OC)c3c(c2)OCO3)oc1C)C1CCS(=O)(=O)C1 (centres undefined)	18%	-0.6%	1.2	3	-26%	-6	0.0
O=C(NCC1CCCO1)c1onc(CSc2ccccc2F)c1C(=O)O (centres undefined)	19%	2.7%	1.1	1	-0.8%	24	-0.5
O=C(NCCOc1nc(N2CCCCC2)nc(N2CCOCC2)n1)Nc1ccccc1	-6%	-5.5%[38.3 µM]	1.0	-1	0.9%	73	1.2
CNC(=S)N1CCc2cc(OC)c(OC)cc2C1COc1ccc(F)cc1 (centres undefined)	9%	4.6%	5.8	-16	-0.7%	5	-0.1
Cc1nnsc1C(=O)N1CCN(c2cc(C(F)(F)F)ccn2)CC1	4%	3.7%	0.5	2	-20%	0	-0.5
CN(C)c1ccc(CNC(=O)C2CCN(c3nc4ccccc4[nH]3)CC2)cc1	nt	-1.6%	nt	nt	-0.4%	23	5.2
COc1ccc(OC)c(C(=O)N2CCC(n3nccc3NC(=O)CC(C)C)CC2)c1	1%	-0.5%	nt	?	-4.9%	-5	0.3
CC(=O)c1cnn(-c2ccccc2)c1C	-2%	0.8%	0.7	6	nt	3	0.4
COCCNC(=O)C/C(C)=N/NC(=O)C(=O)NC1CCCCC1	-13%	-0.7%	-6.5	2	nt	10	-0.6
N#CCCn1nc2c(c1N)CCC2	nt	-0.3%	nt	nt	0.8%	24	0.2
CCOc1cc(/C=C/C(=O)O)ccc1OCCOc1ccc(F)cc1	9%	-2.5%	0.6	7	nt	36	0.2
CCN(Cc1ccncc1)C(=O)c1ccco1	5%	1.4%	0.7	9	-1.4%	0	-0.5
COc1cccc(N2CCN(S(=O)(=O)c3ccc(-c4coc(C)n4)cc3)CC2)c1	0%	3.3%	nt	9	-4.9%	-15	1.6
Cc1cc(C)nc(SCC(=O)Nc2ncc3c(n2)CC(C)(C)CC3=O)n1	0%	3.1%[38.3 µM]	2.6	-3	-0.1%	4	0.8
Cn1c(=O)oc2cc(S(=O)(=O)NCc3ccncc3)ccc21	18%	5.2%	?	-7	-2.6%	-24	2.3
Cc1cccc(N2C(=O)/C(=C/c3ccccn3)SC2=S)c1	1%	8.6%	1.1	-1	-1.9%	-1	0.0
COc1cc(C(=O)Nc2ccc([N+](=O)[O-])cn2)cc(OC)c1OC	-11%	?	-3.4	1	-29%	-9	0.1
Cc1ccc(OC(=O)c2cc(-c3ccc4c(c3)OCCO4)on2)c(C)c1	nt	0.1%	nt	nt	?	18	1.0
CCOc1ccc(C(=O)NCC2OCCc3ccccc32)cc1 (centres undefined)	3%	-0.1%[38.3 µM]	3.0	-4	-0.2%	-26	0.3

Screening results as filed in PubChem BioAssay.
